# Compound activity as filed in PubChem.
# KCNQ2 pot = potentiators of rat KCNQ2 potassium channel; AID 2239, 2010; Potassium voltage-gated channel subfamily KQT member 2 (Rattus norvegicus), O88943; 310,000 compounds, 0.54% hits; B-score at 10 µM; CHO-K1 KCNQ2, FluxOR thallium flux fluorescence; stronger effect = higher value;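 active = fluorescence ratio B-score at least 3 SD of library B-scores, with initial fluorescence B-score within 3 SD, cut at about 5.3 in these data; same plate scores as AID 2156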;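 note: B-score of peak minus minimum over baseline fluorescence ratio after K+ and Tl+ stimulus; positive B-score means potentiation of KCNQ2 with more thallium influx and brighter signal; only the inactives scoring about 0 or higher are listed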
# Target sequence (O88943 whole entry, looked up): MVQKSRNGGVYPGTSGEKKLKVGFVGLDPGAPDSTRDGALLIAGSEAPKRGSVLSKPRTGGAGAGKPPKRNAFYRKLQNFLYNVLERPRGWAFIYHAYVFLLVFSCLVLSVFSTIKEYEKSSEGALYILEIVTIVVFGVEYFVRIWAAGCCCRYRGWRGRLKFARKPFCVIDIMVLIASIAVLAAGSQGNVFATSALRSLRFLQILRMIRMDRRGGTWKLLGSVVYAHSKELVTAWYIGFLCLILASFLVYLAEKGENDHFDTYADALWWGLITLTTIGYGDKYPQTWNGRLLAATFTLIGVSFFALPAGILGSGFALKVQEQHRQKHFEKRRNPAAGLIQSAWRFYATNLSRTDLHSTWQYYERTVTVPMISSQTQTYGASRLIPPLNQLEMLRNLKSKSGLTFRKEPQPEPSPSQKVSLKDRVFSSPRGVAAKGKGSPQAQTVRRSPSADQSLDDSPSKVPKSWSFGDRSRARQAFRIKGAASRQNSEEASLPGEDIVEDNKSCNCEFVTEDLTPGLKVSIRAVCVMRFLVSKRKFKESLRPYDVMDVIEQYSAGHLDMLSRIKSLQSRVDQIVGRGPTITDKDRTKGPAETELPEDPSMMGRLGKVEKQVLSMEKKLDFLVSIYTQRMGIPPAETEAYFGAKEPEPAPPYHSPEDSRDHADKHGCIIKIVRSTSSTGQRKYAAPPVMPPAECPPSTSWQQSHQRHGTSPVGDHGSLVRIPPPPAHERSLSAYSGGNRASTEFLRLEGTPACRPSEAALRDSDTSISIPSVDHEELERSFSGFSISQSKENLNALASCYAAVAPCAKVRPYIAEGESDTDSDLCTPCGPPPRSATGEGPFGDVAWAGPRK
# KCNQ2 pot baseline = also measured in KCNQ2 pot; calls as there; B-score; compound at 10 µM; measured here: initial fluorescence intensity artifact check;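 brightness before thallium and not channel activity; 0 = typical well and far values either way flag optical interference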
# Active calls of the source: *. This is a subset; the hit share may differ from the screen's.
# Sample of the layout (4 entries):
KCNQ2 pot baseline	KCNQ2 pot	compound
-0.11	0.03	COc1ccccc1NC(=O)CCCc1nc(-c2ccc(OC)c(OC)c2)no1
0.05	1.13	CC(=O)Nc1cccc(NC(=O)c2cc(Cl)ccc2Cl)c1
0.14	1.13	CCC(=O)Nc1nnc(SCC(=O)NC2CCCC2)s1
-0.55	0.03	CCOC(=O)c1ccccc1NC(=O)CSc1ccc(-c2cccnc2)nn1

# This part in full, previewed entries included:
KCNQ2 pot baseline	KCNQ2 pot	compound
-0.11	0.03	COc1ccccc1NC(=O)CCCc1nc(-c2ccc(OC)c(OC)c2)no1
0.05	1.13	CC(=O)Nc1cccc(NC(=O)c2cc(Cl)ccc2Cl)c1
0.14	1.13	CCC(=O)Nc1nnc(SCC(=O)NC2CCCC2)s1
-0.55	0.03	CCOC(=O)c1ccccc1NC(=O)CSc1ccc(-c2cccnc2)nn1
-0.45	0.39	CC(OC(=O)C1=COCCO1)C(=O)Nc1cc(S(=O)(=O)N2CCCCC2)ccc1Cl (stereo not given)
-0.55	0.91	COc1ccc(-c2nc(CN3CCC(C(=O)N4CCOCC4)CC3)c(C)o2)cc1OC
-0.58	0.06	N#CCC(=O)N/N=C/c1cn(Cc2ccc(Cl)cc2Cl)c2ccccc12
-1.93	0.67	C=CCSc1nnc2nc3c(nn12)c1cc(C)ccc1n3CC=C
-1.9	0.6	COc1cccc(NC(=O)Cn2c(-c3cncs3)nc3ccccc32)c1
0.08	0.66	O=C(NNC(=O)c1ccco1)c1cccc([N+](=O)[O-])c1
0.69	3.09	CS(=O)(=O)c1ccc(C(=O)Nc2ccccc2Cl)cc1
-0.49	3.9	N/C(=N\N=C\c1ccc(O)c(O)c1)c1nonc1N
0.98	1.32	O=C(CSc1ncnc2[nH]ncc12)Nc1cccc(Oc2ccccc2)c1
-1.97	1.11	O=C(CNCc1ccco1)Nc1cc(S(=O)(=O)N2CCOCC2)ccc1N1CCCC1
-0.08	0.65	CCN(CC)C(=O)CSc1ncnc2c1nnn2-c1ccc(F)cc1
-1.53	0.47	Cc1ccc(OCC(=O)Nc2ccc(S(=O)(=O)N3CCOCC3)cc2)c(C)c1
-0.56	0.03	Cc1ccc(C(=O)NN(CCC#N)C2=NS(=O)(=O)c3ccccc32)cc1
0.03	2.75	NC(=S)NNC(=O)C12CC3CC(CC(C3)C1)C2
-0.48	1.47	COC(=O)C1=C(C)N(C)C(=O)NC1c1cc2c(cc1[N+](=O)[O-])OCO2 (stereo not given)
0.74*	10.1*	CSc1nnc(NC(=O)c2nc(S(=O)(=O)Cc3ccccc3F)ncc2Cl)s1
0.12	0.24	Cc1nsc2c1ccc1ccccc12
-0.35	0.09	Cc1ccc(C(CNC(=O)Nc2cccc(C)c2)N2CCN(C)CC2)cc1 (stereo not given)
0.69	0.71	CC(C)CC(=O)Nc1ccc(N2CCN(C(=O)c3cccs3)CC2)cc1
-0.3	0.85	CCCC(=O)OCC(=O)Nc1ccc2[nH]c(=O)[nH]c2c1
-0.77	0.11	O=C1NC(=Nc2ccccc2)S/C1=C\c1ccccc1
1.12	1.41	COc1ccc(C(=O)NNc2ccccc2)cc1OC
-0.07	0.15	Cc1ccc(NC(=O)c2cc(N3C(=O)C4CC=CCC4C3=O)ccc2N2CCCCC2)cc1 (stereo not given)
1.36	0.47	COc1cccc(NC(=O)Cn2nnc(-c3ccccc3N)n2)c1
0.12	1.33	O=C(N/N=C/c1cccs1)c1cc(-c2ccncc2)nc2ccccc12
0.04	0.75	O=C(NCCCN1CCOCC1)/C(=C/c1cccs1)NC(=O)c1ccccc1
0.04	0.17	CCc1nnc(NC(=O)CCC(=O)N2CCN(c3cc(Cl)ccc3C)CC2)s1
-0.02	0.13	O=C(Nc1ccc(NC(=O)C2CC2)cn1)c1ccccc1Cl
0.96	0.35	Cc1nc(NC(=S)NC(=O)COc2ccccc2Cl)ccc1Br
-1.53	0.7	COc1ccc(-c2nnc(SCC(=O)Nc3cccc(Cl)c3)o2)cc1
-0.73	1.3	COc1ccc(CNC(=O)c2ccc(Br)cc2)cc1
0.26	0.55	N#CC1C(=O)NC(N2CCN(c3ccccc3)CC2)=NC12CCCCC2 (stereo not given)
0.51	0.01	CCOc1ccccc1-n1c(SCC(=O)NC(C)CC)nnc1-c1ccoc1C (stereo not given)
-0.1	0.34	COC(=O)CCN(c1ccccc1)S(=O)(=O)c1cc(-c2cc(C)no2)ccc1C
0.55	0.71	O=C(O)c1cccnc1SC1CC(=O)N(c2ccccc2)C1=O (stereo not given)
1.29	0.88	O=C(CCN1C(=O)c2ccccc2C1=O)NCc1cccc(Cl)c1
0.04	0.47	CCn1cc(CN2CCCC(C(=O)Nc3cccc(-n4cccn4)c3)C2)c(C)n1 (stereo not given)
0.23	0.47	O=C(Cn1cnc2ccccc21)N/N=C/c1cccs1
-1.09	0.23	CC(C)(C)n1nc(C2CC2)cc1NC(=O)Nc1ccc(Cl)cc1
-1.33	0.22	Cc1nc2nc(-c3ccccc3)nn2c(C)c1Cl
0.06	0.51	Clc1nc(Nc2ccccc2)nc(Nc2ccccc2)n1
0.74	0.75	CCOC(=O)CSC1=Nc2ccccc2C2=NC(CC(=O)NCc3ccccc3)C(=O)N12 (stereo not given)
-0.67	0.15	COCCNC(=O)[C@H](CSCc1ccccc1)N1Cc2ccccc2C1=O
-0.01	0.53	O=C(NNC(=S)NC1CCCCC1)c1ccc2c(c1)OCO2
1.21	0.54	COc1ccc(-c2nc(CS(=O)CC(=O)N3CCCC3)c(C)o2)cc1 (stereo not given)
-0.74	0.11	O=C(NCc1ccccc1)c1ccc(OC2CSC2)cc1
1.01	0.04	O=C(O)CCC(=O)Nc1ccc(OCC(=O)O)cc1
0.09	1.06	O=C(O)c1ccc(/C=C2\SC(=S)N(NC(=O)c3ccccc3)C2=O)cc1
-0.31	0.01	CS(=O)(=O)Nc1cccc(C2=NN(S(=O)(=O)c3ccccc3)C(c3cccs3)C2)c1 (stereo not given)
0.04	2.07	CCCCNC(=O)c1ccc(CS(=O)(=O)c2ccc(OC)cc2)o1
1.11	0.27	CC1CCCCN1c1nc2nonc2nc1N1CCCCC1C (stereo not given)
0.12	0.69	Cc1ccc(N2CC(C(=O)OCc3nnc(-c4ccccc4)o3)CC2=O)cc1 (stereo not given)

# Next part.
KCNQ2 pot baseline	KCNQ2 pot	compound
-0.24	0.45	CC1CCCCN1S(=O)(=O)c1ccccc1[N+](=O)[O-] (stereo not given)
-0.64	0.08	O=C(O)CCn1cc(/C=C2\SC(=S)NC2=O)c(-c2ccccc2)n1
0.03	0.05	CC(=O)Nc1ccc(C(=O)NC(C)c2ccc(-n3ccnc3)cc2)cc1 (stereo not given)
-0.68	0.01	COc1ccc(-c2cc3ccccc3oc2=O)cc1NC(=O)c1cccnc1
1.36	0.37	CCOC(=O)c1c(C)[nH]c(C(=O)NCCc2ccc(OC)c(OC)c2)c1C
-0.52	1.75	O=C(Cn1c(-c2ccccc2)noc1=O)Nc1ccc(N2CCCCCC2)cc1
0.41	1.77	COc1ccccc1OCCn1c(C(C)O)nc2ccccc21 (stereo not given)
0.18	1.64	O=C(c1cccs1)N1CCN(c2nc3ccccc3s2)CC1
1.17	2.67	O=C1/C(=C/c2cccnc2)SC(=S)N1CC1CCCO1 (stereo not given)
0.79	0.62	Cc1ccc(NC(=S)NCc2ccc3[nH]c4c(c3c2)CCCC4)cc1
0.83	0.04	COc1cc(C2NC(=O)NC(C)=C2C(=O)OC(C)(C)C)ccc1OCC(=O)O (stereo not given)
0.02	1.3	CCn1nnc(NC(=O)c2cc3ccccc3o2)n1
-0.83	1.78	COc1ccc(-n2ncc3c2CC(C)(C)CC3NC(=O)Cc2nonc2C)cc1 (stereo not given)
0.93	0.29	CCOc1ccc(NC(=O)NCc2cccnc2)cc1
-1.07	1.47	CC(C)c1onc(C(=O)N2CCC(C(N)=O)CC2)c1[N+](=O)[O-]
0.71	1.32	COc1ccc(CNC(=O)CSc2ncn[nH]2)cc1
3.68	1.7	CCCCn1nc2cc(C(=O)NCc3ccc(OC(F)(F)F)cc3)ccc2c1OC
0.44	1.13	CCOC(=O)C1Cc2c([nH]c3ccccc23)C(C)N1 (stereo not given)
0.01	0.89	Nc1c(C(=O)N2CCCCCC2)oc2ccccc12
-0.29	0.9	COc1ccc(OC)c(/C=N/NC(=O)CNC(=O)c2ccc(S(=O)(=O)N3CCOCC3)cc2)c1
0.28	0.96	O=C(NCC(=O)N(Cc1cccs1)C(C(=O)NC1CCCC1)c1ccncc1)c1ccco1 (stereo not given)
-0.73	0.09	CN=C(C)/C(C(=O)OC)=C(/O)c1c(F)cccc1F
-2.67	0.32	CC(=O)Nc1ccc(-c2csc(NC(=O)CC(NC(C)=O)c3ccccc3)n2)cc1 (stereo not given)
-0.53	0.1	O=C(O)c1ccccc1C(=O)c1ccc(N2CCOCC2)c([N+](=O)[O-])c1
0.04	1.11	COc1ccc(-c2cc(C(=O)NCc3ccccc3)no2)cc1OC
-0.01	1.75	COc1ccc2cc3c(N)nn(C(=O)c4cccc(F)c4)c3nc2c1
-0.85	1.08	O=C1CCN(Cc2ccc([N+](=O)[O-])cc2)CCN1[C@H](CO)Cc1ccccc1
-0.92	1.27	CCOc1ccc(-c2nc(C#N)c(N3CCN(C)CC3)o2)cc1
0.01	1.07	O=C(O)COCC(=O)Nc1ccc(-n2cnnn2)cc1
0.29	1.05	O=C(O)CN1C(=O)/C(=C\c2cc(Br)ccc2OCc2ccccc2F)SC1=S
-0.81	0.5	O=C(c1ccc(Cl)c(S(=O)(=O)N2CCCCCC2)c1)N1CCCC(C(F)(F)F)C1 (stereo not given)
-0.66	1.34	O=C(c1ccco1)N1CCN(C(=O)c2ccc(CS(=O)c3cccc(Cl)c3)o2)CC1 (stereo not given)

# Next section, overlapping the part above by six compounds.
KCNQ2 pot baseline	KCNQ2 pot	compound
-0.85	1.08	O=C1CCN(Cc2ccc([N+](=O)[O-])cc2)CCN1[C@H](CO)Cc1ccccc1
-0.92	1.27	CCOc1ccc(-c2nc(C#N)c(N3CCN(C)CC3)o2)cc1
0.01	1.07	O=C(O)COCC(=O)Nc1ccc(-n2cnnn2)cc1
0.29	1.05	O=C(O)CN1C(=O)/C(=C\c2cc(Br)ccc2OCc2ccccc2F)SC1=S
-0.81	0.5	O=C(c1ccc(Cl)c(S(=O)(=O)N2CCCCCC2)c1)N1CCCC(C(F)(F)F)C1 (stereo not given)
-0.66	1.34	O=C(c1ccco1)N1CCN(C(=O)c2ccc(CS(=O)c3cccc(Cl)c3)o2)CC1 (stereo not given)
-0.2	0.83	CC1CC(=O)N(CC(=O)NC2CCCCC2)c2ccccc2S1 (stereo not given)
-0.33	0.2	CCC1CCCCN1c1ccc([N+](=O)[O-])cc1/C=N/NC(=O)Cn1c2ccccc2c(=O)c2ccccc21 (stereo not given)
-0.38	1.61	O=C(N/N=C/c1c[nH]c2ccc(Br)cc12)C1CC1
-1.34	0.02	Cc1nnc(SCC(=O)N2CCN(S(=O)(=O)c3ccc(Cl)cc3)CC2)[nH]c1=O
0.88	0.37	CC1Cc2ccccc2N1C(=O)c1ccc2c(c1)nnn2C (stereo not given)
-1.27	0.93	Cc1cc(C)nc(SCc2nnc(SCC(=O)Nc3cc(C(F)(F)F)ccc3Cl)o2)n1
0.73	1.05	Cc1cc(F)ccc1NS(=O)(=O)c1c(C)nc2scc(C)n2c1=O
0.35	0.28	COc1cc(/C=C/C(=O)c2ccc(C)cc2)ccc1OCC#N
-1.01	0.06	COc1ccc(NC(=S)N(CCc2ccc(OC)c(OC)c2)Cc2ccccn2)cc1
0.07	1.27	Cc1cc(=O)oc2ccc(OCC(=O)N3CCc4ccccc43)cc12
0.63	0.64	COc1ccc2nc(N=NC3=C(O)CC(C)(C)CC3=O)sc2c1
0.09	0.04	Cc1ccc(-c2nc(-c3cccnc3)no2)c(C)c1
-0.9	0.01	COc1ccccc1NC(=O)c1ccc2c(c1)nnn2C
-0.16	1.42	CN(C)c1ccc(CNC(=O)c2cc(S(=O)(=O)N3CCCC3)cn2C)cc1
-1.53	1.74	COc1ccc(NC(=O)N2CCN(c3ccc([N+](=O)[O-])cc3)CC2)cc1OC
1.58	1.2	COc1cc(CNCc2ccc(OC)cc2OC)cc(OC)c1
1.63	1.09	COc1ccc(C2CC(c3ccccc3)Nc3ncnn32)cc1 (stereo not given)
-0.74	0.43	Cc1cc(C)cc(OC(=O)CS(=O)c2ccc(C(F)(F)F)cc2[N+](=O)[O-])c1 (stereo not given)
-2.09	1.62	O=C(CSc1ccc(Cl)cc1)Nc1ncccn1
0.1	0.06	O=C(c1ccc(Cl)c(Cl)c1)N1CCOCC1
-0.05	0.91	NC(=O)c1ccc(NCCc2ccccc2)c([N+](=O)[O-])c1
1.29	0.85	CCN1CCN(C(=O)Nc2cc(Cl)ccc2OC)CC1
-0.03	0.06	CSc1sc(-c2nnc(SCC(=O)Nc3ccc(Cl)cc3)n2C)c2c1C=CCC2
-0.76	0.42	CCOC(=O)C1=C(COC(=O)/C=C/c2cc(OC)c(OC)c(OC)c2)NC(=O)NC1C (stereo not given)
-1.14	0.71	CCOC(=O)c1ccc(-n2c(C)nc3c(cnn3-c3ccccc3C)c2=O)cc1
-0.7	0.22	O=C(CC12CC3CC(CC(C3)C1)C2)Nc1nncs1
1.43	1.74	O=C(NCCN1CCOCC1)c1ccc(CSc2nc3ccncc3n2Cc2ccc(F)cc2)cc1
0.26	0.22	COc1ccc(N(C(=O)c2snc(C(N)=O)c2N)C(C(=O)NC2CCCC2)c2ccc(F)cc2)c(OC)c1 (stereo not given)
-0.57	0.39	FC(F)Oc1ccc(-c2c[n+]3c(n2-c2ccccc2)CCCCC3)cc1
-0.78	0.06	CCN1CCN(C(=O)c2cn(CCOC)c(=O)c3c2c2ccccc2n3C)CC1
0.25*	17.6*	N=C1c2ccccc2CN1NC(=O)CC12CC3CC(CC(C3)C1)C2
0.13	0.78	COc1cc(OC)c(NC(=O)c2ccco2)cc1Cl
